Mtb hypoxia rep – inhibitors of hypoxia-regulated fluorescent reporter in Mycobacterium tuberculosis | M. tuberculosis hypoxia-regulated fluorescent reporter, fluorescence | fluorescence inhibition, % (no concentration beside the values) | 300,000 compounds, 0.1% hits | AID 1159583;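 active means 35 to 45% if threefold the growth effect, above 45% if 1.5-fold the growth effect; inactive means the rest, general growth blockers included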;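 further: wells of about 50 µL received 100 nL stock; 0% = vehicle wells and 100% = reference inhibitor wells; whole bacteria with a GFP reporter of the hypoxia response; strong numbers were not always called active; many hits fall short of the cut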
BJeLR viability – BJeLR cell viability loss | BJeLR (HRASV12) viability, CellTiter-Glo ATP luminescence, 48 h; reference of the scale not given here | AID 1554 | 300,000 compounds, 0.17% hits | inhibition, % (no concentration beside the values);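 active means replicate mean above 50%; inconclusive means above 50% but judged a plate artefact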;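 further: 50 nL library stock added to about 25 µL; numbers are from one replicate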
Sa RN4220 lethal – kills Staphylococcus aureus RN4220 | inhibition, % (concentration not given with the values) | AID 1259311 | 330,000 compounds, 0.33% hits | S. aureus RN4220 growth, OD600, 16 h;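 active means z-score of -3 or lower and OD600 up to 0.18 on both plates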;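 further: plate controls were untreated cells for no effect and reference antibiotic for full effect; stock transfer was 100 nL into about 80 µL; one replicate is shown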
Bead autofluor – flagged as autofluorescent in microsphere protease counterscreen | compound autofluorescence counterscreen, microsphere flow cytometry; active compounds read high | fluorescence intensity (test concentration not listed) | 360,000 compounds, 3.1% hits | AID 624483;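 active means at least 3 SD above the mean of all compounds, about 16000 in these data; inconclusive means too few beads counted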;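 further: 100 nL of 1 mM stock went into each well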
PrP UTR inh – suppresses PrP 5' UTR mRNA reporter expression; cell-based PrP 5' UTR mRNA reporter, plate reader; 340,000 compounds, 0.35% hits; inhibition, % (no concentration beside the values);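 active means every replicate at 50% or more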;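 further: 0 = median of the neutral control wells; tested in H4 reporter cells; numbers are from one replicate; inactives centre near -14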
ugtP null kill – growth inhibition of S. aureus ugtP deletion strain; S. aureus RN4220 ugtP deletion, OD600 growth, 16 h; some inactives read as strong as hits; growth inhibition, % (concentration not given with the values); 330,000 compounds, 0.54% hits;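 active means z-score under -3 and OD600 up to 0.15 on both plates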;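 further: plate controls were untreated wells for no effect and antibiotic for full effect; wells of about 80 µL received 100 nL stock; the first replicate is given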
Mtb hypoxia rep growth – also measured in Mtb hypoxia rep; calls as there; growth inhibition, %; measured here: M. tuberculosis growth (absorbance);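 0% = vehicle and 100% = reference antibiotic; read after six days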
An asterisk follows results filed as active; ? = inconclusive; . = not tested or not shown.

SMILES	Mtb hypoxia rep	Mtb hypoxia rep growth	BJeLR viability	Sa RN4220 lethal	Bead autofluor	PrP UTR inh	ugtP null kill
COc1ccc(-c2cc(C(=O)Nc3ccc4c(c3)OCO4)no2)cc1OC	4	6	2	5.3	2900	-2	3
C=CCOc1ccc(C=NNC(=O)c2cc3c(OC)cc(OC)cc3[nH]2)cc1	0	6	.	1.9	.	.	-8
CC(C)(C)OC(=O)NC(=NCCCc1cn(CC(=O)N2CCN(C(=O)OC(C)(C)C)CC2)nn1)NC(=O)OC(C)(C)C	5	8	-3	3.7	3551	-14	0
Nc1ccc(C23CC4CC(CC(CO)(C4)C2)C3)cc1	7	7	6	7.4	3949	-9	-7
COCCCn1c(=O)/c(=C\c2ccc(OC(F)F)c(OC)c2)s/c1=C(/C#N)C(=O)NCCOC	.	.	1	.	3674	-3	.
COCCC1CCCCN1C(=O)c1cc(COc2cccc(C(C)=O)c2)on1 (configuration not stated)	8	6	10	3.8	.	-59	12
CCC(CC)C(=O)NCCc1cc2c(OC)ccc(OC)c2[nH]c1=O	.	.	-2	7.3	2105	-6	3
COc1cc(/C=C2\SC(=Nc3ccc(N4CCOCC4)cc3)N(C)C2=O)ccc1OC(C)C(=O)O (configuration not stated)	6	4	9	-0.5	2126	-12	0
COc1ccc(NC(=O)CO/N=C2/CCCc3nonc32)c(OC)c1	.	.	-14	.	3225	-10	.
Cc1ccccc1Nc1nc(N)nc(CSc2nnnn2-c2ccccc2)n1	3	8	7	8.3	9646	-13	1
Cc1ccc2nc(N3CCN(Cc4ccc(F)cc4)C3=O)c(C)cc2c1	.	.	8	9.8	4576	8	9
C=CCCC(=O)Nc1nc(C)c(-c2csc(Nc3ccccc3OC)n2)s1	8	12	16	1.0	3361	-40	8

Copied from the listing, 4 compounds:
SMILES	Mtb hypoxia rep	Mtb hypoxia rep growth	BJeLR viability	Sa RN4220 lethal	Bead autofluor	PrP UTR inh	ugtP null kill
COc1ccc(NC(=O)CO/N=C2/CCCc3nonc32)c(OC)c1	.	.	-14	.	3225	-10	.
Cc1ccccc1Nc1nc(N)nc(CSc2nnnn2-c2ccccc2)n1	3	8	7	8.3	9646	-13	1
Cc1ccc2nc(N3CCN(Cc4ccc(F)cc4)C3=O)c(C)cc2c1	.	.	8	9.8	4576	8	9
C=CCCC(=O)Nc1nc(C)c(-c2csc(Nc3ccccc3OC)n2)s1	8	12	16	1.0	3361	-40	8

Remaining list, next part:
SMILES	Mtb hypoxia rep	Mtb hypoxia rep growth	BJeLR viability	Sa RN4220 lethal	Bead autofluor	PrP UTR inh	ugtP null kill
O=C(N/N=C/c1cc2ccccc2[nH]1)c1ccccc1Cl	.	.	-15	.	5334	-28	.
CCCc1ccc(S(=O)(=O)N(C)S(=O)(=O)c2ccc(F)cc2)cc1	.	.	2	.	5456	-10	.
COc1ccccc1C(=O)NC(=O)COC(=O)CNC(=O)c1ccc(Cl)c([N+](=O)[O-])c1	6	3	-4	4.7	?	-11	3
COc1ccccc1/C=C(/C(=O)NCCCn1ccnc1)c1ccccc1	12	1	5	7.4	4654	-1	5
COc1ccccc1C1C(C(N)=O)=C(C)Nc2nc(CCCO)nn21 (configuration not stated)	1	-4	5	-0.5	3452	-22	12
CCN(C(=O)Cn1c(=O)oc2ccccc21)c1cccc(C)c1	3	2	1	2.2	3642	-5	17
COCCCNC(=O)c1ccc2c(=O)n(Cc3ccc(OC)cc3)c(=O)[nH]c2c1	-1	-1	1	-0.8	4881	8	2
CC(C)CCn1c(=O)c2ccccc2n2c(CN3C(=O)NC4(CCC(C)CC4)C3=O)nnc12 (configuration not stated)	.	.	6	0.7	2920	-14	4
CCOC(=O)N1CCN(C(=O)C2CCN(S(=O)(=O)c3cc(Cl)ccc3OCC)CC2)CC1	9	5	-4	5.0	6471	-7	6
CNc1ccccc1C(=O)OC(C)C(=O)Nc1ccc(Cl)cn1 (configuration not stated)	-5	6	3	0.1	3034	-6	0
CC(=O)Nc1c(NC(=O)CC#N)[nH]c2c(c1=O)c(=O)n(C)c(=O)n2C	9	3	7	9.2	2592	-22	7
Cc1ccc(S(=O)(=O)c2nc(S(C)(=O)=O)sc2N2CCC3(CC2)OCCO3)cc1	-7	4	-2	0.8	5517	-3	2

Compound profiles, as listed above:
CNc1ccccc1C(=O)OC(C)C(=O)Nc1ccc(Cl)cn1 (configuration not stated) reads Mtb hypoxia rep: -5; Mtb hypoxia rep growth: 6; BJeLR viability: 3; Sa RN4220 lethal: 0.1; Bead autofluor: 3034; PrP UTR inh: -6; ugtP null kill: 0
CCN(C(=O)Cn1c(=O)oc2ccccc21)c1cccc(C)c1 reads Mtb hypoxia rep: 3; Mtb hypoxia rep growth: 2; BJeLR viability: 1; Sa RN4220 lethal: 2.2; Bead autofluor: 3642; PrP UTR inh: -5; ugtP null kill: 17

2 compounds from above, limited to Bead autofluor:
compound	Bead autofluor
CNc1ccccc1C(=O)OC(C)C(=O)Nc1ccc(Cl)cn1 (configuration not stated)	3034
CC(=O)Nc1c(NC(=O)CC#N)[nH]c2c(c1=O)c(=O)n(C)c(=O)n2C	2592

Other results.
SMILES	Mtb hypoxia rep	Mtb hypoxia rep growth	BJeLR viability	Sa RN4220 lethal	Bead autofluor	PrP UTR inh	ugtP null kill
C/C(=N\NC(=O)c1ccc(CN2CCOCC2)cc1)c1ccc(NC(=O)c2ccccc2)cc1	.	.	6	.	4032	-36	.
COCCNC(=O)c1ccc2c3n(nc2c1)-c1ccc(Cl)cc1CO3	12	11	16	8.6	4098	-30	6
O=C(N=Nc1c(O)[nH]c2ccccc12)c1cc(NS(=O)(=O)c2cccs2)cc(NS(=O)(=O)c2cccs2)c1	.	.	-5	.	4750	1	.
COC(=O)c1[nH]c2ccccc2c1NC(=O)CN1CCN(C(=O)c2ccco2)CC1	10	7	0	4.6	3247	-2	-1
CN(C)S(=O)(=O)c1ccc2nnn(O)c2c1	-6	7	-14	-0.1	4200	-10	0
O=C1CCC(C(=O)N2CCCCO2)CN1Cc1cccc(F)c1 (configuration not stated)	8	4	8	0.6	6062	-10	14
Cc1ccc(O)c(NC(=O)C2CC(c3c(F)cccc3Cl)=NO2)c1 (configuration not stated)	15	11	-18	6.4	11878	-48	-8
Nc1ccc2c(c1)C/C(=C/c1ccco1)C2=O	3	2	2	2.7	3139	-69	-1
CC[n+]1c(/C=C2\Sc3ccccc3N2C)ccc2cccc(C)c21	.	.	35	100*	4252	10	101*
CCOC(=O)c1cnc(=O)[nH]c1C	.	.	10	2.5	.	.	-1
COc1ccccc1CNC(=O)CN1C(=O)NC(C)(c2ccc(C)cc2)C1=O (configuration not stated)	-14	-3	3	3.8	3113	-5	6
Cc1ccc(NC(=O)CSc2ccc(-c3cccnc3)nn2)c(C)c1	-8	-6	7	0.7	4628	7	7
O=C(Nc1cccc2c1CCCC2)c1cc([N+](=O)[O-])ccc1Cl	-14	5	-7	1.1	3175	-19	-6
CN1C(=O)C(CC(=O)Nc2ccc(F)cc2)N(NC(=O)c2cccc(F)c2)C1=S (configuration not stated)	7	5	-10	0.2	3606	-18	-6
COc1ccc(OCC(=O)Nc2ccc(NC(=O)c3ccccc3Cl)c(OC)c2)cc1	0	-11	-10	7.0	3808	-5	2
COc1ccc(NC(C)C(=O)Nc2ccc(C(C)(C)C)cc2)cc1Cl (configuration not stated)	.	.	-1	-4.1	3580	-29	0
O=C(COc1ccc(Br)cc1)N1CCN(Cc2ccncc2)CC1	.	.	.	3.4	2840	-13	1
O=C(COC(=O)Cc1cccc(C(F)(F)F)c1)NC1CC1	10	2	-9	6.6	3041	-9	-1
CCOc1ccc(NC(=O)C(=O)NCCCn2ccnc2)cc1	-9	5	2	1.1	8704	-9	-5
O=S(=O)(Nc1ccc(N2CCOCC2)cc1)c1c(F)cc(F)cc1Br	10	-4	4	8.3	3330	-25	2
CC(=O)Nc1ccc(NC(=O)C(C)OC(=O)CCCN2C(=O)c3cccc4cccc(c34)C2=O)cc1 (configuration not stated)	.	.	2	.	4331	4	.
CCc1ccccc1NC(=O)C1CCCN(c2ncccn2)C1 (configuration not stated)	6	2	-15	2.2	6226	-12	1
O=c1c2[nH]c3ccccc3c2ncn1CCCn1ccnc1	-7	12	-3	-2.4	8543	-12	-4
O=c1cc(-c2ccc(O)cc2)oc2c(C3OCC(O)C(O)C3O)c(O)c(C3OC(CO)C(O)C(O)C3O)c(O)c12 (configuration not stated)	.	.	-7	1.6	4313	-4	-1

Random excerpt: 2 entries already listed
SMILES	Mtb hypoxia rep	Mtb hypoxia rep growth	BJeLR viability	Sa RN4220 lethal	Bead autofluor	PrP UTR inh	ugtP null kill
COc1ccc(OCC(=O)Nc2ccc(NC(=O)c3ccccc3Cl)c(OC)c2)cc1	0	-11	-10	7.0	3808	-5	2
O=C(Nc1cccc2c1CCCC2)c1cc([N+](=O)[O-])ccc1Cl	-14	5	-7	1.1	3175	-19	-6

Later entries:
SMILES	Mtb hypoxia rep	Mtb hypoxia rep growth	BJeLR viability	Sa RN4220 lethal	Bead autofluor	PrP UTR inh	ugtP null kill
COc1cc(/C=C2\SC(=S)N(NC(=O)c3cccc(O)c3)C2=O)ccc1O	4	-3	1	13	3861	-13	-3
COc1ccccc1/C=N/NC(=O)c1cccc2ccccc12	.	.	7	.	3833	-29	.
NC(=O)C1CCCN1S(=O)(=O)c1ccc2ccccc2c1 (configuration not stated)	0	-6	-1	3.0	2860	10	4
Cc1csc2nc(CSc3nc4ccccc4o3)cn12	.	.	.	0.4	4297	-72	-1
CCOC(=O)N1CCN(C(=O)CSc2nc(=O)n3ccccc3n2)CC1	2	-4	4	0.2	5630	-22	-1
Cc1cc(NC(=O)CCC(=O)N(c2ccc(F)cc2)C(C(=O)NC2CCCC2)c2cccnc2)no1 (configuration not stated)	7	9	-8	-1.6	4971	-19	12
CCOc1ccc(/C(=N\O)C(C)NO)cc1 (configuration not stated)	.	.	-6	.	7451	-10	.
COc1cc(O)c(C(CCN2CCCC2)c2cc(OC)c(OC)c(OC)c2)c(OC)c1 (configuration not stated)	-2	13	8	-0.2	6663	-32	1
CCOC(=O)N1CCN(c2ncnc3c2[nH]c2ccc(F)cc23)CC1	1	8	0	1.6	2581	-8	-2
CSc1nnc(-c2sc(-c3ccccc3)nc2C)n1C	-1	4	-1	1.4	.	-12	-8
O=C(NCCC1=CCCCC1)C1CCN(S(=O)(=O)N2CCCC2)CC1	3	7	2	4.0	4005	-15	11
COc1cc(C(C)=O)ccc1OCCCOc1cccc2cccnc12	.	.	0	.	3735	-34	.
CC(C)[C@H](NC(=O)OCc1ccccc1)C(=O)OCC(=O)N1CCCCC1	5	0	.	-0.3	3938	-62	-2
COC(=O)c1c(C)c2c(C)cc3ccccn3c-2c1C(=O)OC	9	1	-1	-2.9	2441	-16	-1
CCOc1cccc2cc(-c3cn4cc(C)ccc4n3)c(=O)oc12	5	3	2	8.8	4321	-37	-4
CN(CC(=O)Nc1c(Cl)cccc1Cl)C(=O)c1sccc1-c1ccccc1	-5	0	-7	5.7	?	-10	9
O=C1c2cccnc2C(=O)N1Cc1ccco1	5	8	-12	1.2	11325	-3	1
CC(C)(CNC(=O)c1cc2ccccc2o1)N1CCOCC1	-1	-1	-2	2.4	9236	-7	0
Cc1ccc(S(=O)(=O)CCC(=O)Nc2ccccc2N2CCCC2)cc1	2	-5	.	8.7	6520	-17	13
Cc1c(C)n(C)c2ccc(C(=O)NCc3cccs3)cc12	8	8	-12	12	6041	-9	11
CCN(CC)S(=O)(=O)c1cccc(NC(=O)COC(=O)c2cncc(Br)c2)c1	5	3	.	6.6	4126	-15	1
COc1cccc(-n2sc3c(c2=S)-c2cc(OC)ccc2NC3(C)C)c1	.	.	6	35	4344	-27	17
CCc1ccc(OCc2nnc(SCC(=O)N3CCOCC3)o2)cc1	8	7	3	4.3	2749	-14	7
CNC(=O)C(NC(=O)Nc1ccc(C)cc1)C(C)(C)C (configuration not stated)	6	-33	6	6.0	4378	-15	6
Nc1cc(-c2ccc(Br)cc2)nn1S(=O)(=O)c1cccc2nsnc12	10	11	0	-4.1	6230	-20	14
Cc1ccccc1C(=O)NC(C)C(c1cccs1)N1CCOCC1 (configuration not stated)	1	9	-7	-14	6867	-29	-4

High-throughput results from PubChem BioAssay.
